Compound activity: PubChem, National Center for Advancing Translational Sciences (NCATS)
HPGD inh: HPGD (human) dehydrogenase inhibition | purified HPGD, NADH fluorescence kinetic, PGE2 substrate | Potency, µM, inactives show at the highest dose activity change, negative = inhibition, actives largely listed as inhibitors | actives 4.3% (n = 150,000) | AID 894; active = well fitted inhibition curve with a large enough effect (not every such curve was filed as active); inconclusive = small, poorly fitted or top-dose-only effect, or another doubt; inactive = no such curve, though single readings can be large or run the other way;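 note: top concentration of the series not given in the record; plate controls included wells without enzyme; inactives centre near -10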
Target sequence (P15428 whole entry, looked up): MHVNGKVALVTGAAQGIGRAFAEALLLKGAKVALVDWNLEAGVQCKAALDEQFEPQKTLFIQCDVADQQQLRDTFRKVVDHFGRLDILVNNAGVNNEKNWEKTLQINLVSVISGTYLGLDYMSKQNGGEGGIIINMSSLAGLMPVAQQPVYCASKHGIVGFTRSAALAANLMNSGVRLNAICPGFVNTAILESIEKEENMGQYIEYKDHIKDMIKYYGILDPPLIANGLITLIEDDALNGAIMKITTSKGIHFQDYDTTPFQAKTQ
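NADH formation kinetics: reaction with 30 uM PGE2 and 1 mM NAD+ (final), 20 nM enzyme, Tris-HCl pH 8 with Tween 20, after 15 min compound preincubation at room temperature. Fluorescence change, last versus first of five reads.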
* marks the source's active call; other numbers are inactive results; ? = inconclusive. % is set by controls: 0 for no effect and ±100 for the full control effect; potency is the fitted concentration of half-maximal effect.

Molecule | HPGD inh
COc1ccc(OCC(O)CN2C(=O)c3ccccc3S2(=O)=O)cc1 (configuration not stated) | -12%
CCOc1ccc2[nH]c(=O)c(=O)[nH]c2c1 | -28%
CN1C(=O)c2cccc3c(S(=O)(=O)Nc4ccccn4)ccc1c23 | -19%
Nc1ccc(CCc2nc3ccccc3o2)cc1 | -9%
Cc1cc(C)c(S(=O)(=O)N2CCN(c3ccc([N+](=O)[O-])c(NCc4ccco4)c3)CC2)c(C)c1 | -16%
O=C1NC2(C=Cc3c(ccc4ccccc34)O2)Oc2ccccc21 (configuration not stated) | ?
CCOc1ccc(-c2c(=O)n(OCc3ccccn3)c3ccccc3[n+]2[O-])cc1 | -18%
CCOc1cc(C(=O)OCC(=O)c2c[nH]c3ccccc23)ccc1OCC(=O)N1CCOCC1 | 1%
O=C(COc1ccc(S(=O)(=O)NCc2ccccc2)cc1Cl)NCC1CCCO1 (configuration not stated) | -18%
CCNC(=S)N/N=C(\C)c1ccc(N2CCOCC2)cc1 | -30%
O=C(c1cccnc1)N1CCc2ccccc2C1 | 32µM*
CN(CC(=O)Nc1ccncc1)S(=O)(=O)c1ccc(Cl)cc1 | -15%
CCOC(=O)c1cnc(SCC(=O)c2ccccc2)nc1N | -29%
O=C(O)CN1C(=O)C2(OCCCO2)c2ccccc21 | -7%
CC1CCCN(Cc2c(O)ccc3c2O/C(=C\c2ccco2)C3=O)C1 (configuration not stated) | ?
CCOC(=O)N=S(=O)(Oc1ccc([N+](=O)[O-])cc1)c1ccccc1 (configuration not stated) | ?
COC/C=C/C1=CC2=CC(=O)C(C)(OC(=O)c3cnc4ccccc4n3)C(=O)C2=CN1c1ccc(CO)cc1 (configuration not stated) | -14%
COC(=O)c1ccc(C(NC(=O)OCc2ccccc2)/C(=C/[C@@H](C)C(=O)NCCc2c[nH]c3ccccc23)c2cccnc2)cc1 (some centres not stated) | -10%
CC(/C=C1\SC(=S)N(CC(=O)N2CCN(c3ccccc3)CC2)C1=O)=C\c1ccccc1 | -7%
N#Cc1ccccc1Sc1ccccc1C(=O)N1CCOCC1 | -8%
COC(=O)c1ccc(C(=O)OC)c(NC(=S)N2CCN(c3ccccc3F)CC2)c1 | -12%
CCOc1cccc(/C(O)=C2/C(=O)C(=O)N(Cc3ccco3)C2c2ccncc2)c1 (configuration not stated) | -13%
Cc1ccc(SC(C)C(=O)Nc2cccc(N(C)S(C)(=O)=O)c2)cc1 (configuration not stated) | -2%
Cc1cccc(NC(=O)c2cc(NC(=O)c3ccccc3)ccc2N2CCCCC2)c1 | ?
COc1cccc(-n2c(=O)[nH]cc(C(=O)Nc3ccc4c(c3)OCCO4)c2=O)c1 | -11%
CC(O)CNCc1ccc(-c2ccccc2)cc1 (configuration not stated) | -6%
CCCCN1C(=O)C(=O)N(c2ccccc2)C1=S | -4%
Brc1ccc(C2CC(c3ccccc3)=Nc3ccccc3N2)cc1 (configuration not stated) | -20%
CCOC(=O)C1CCN(S(=O)(=O)c2cccc(-c3cn4cc(Cl)ccc4n3)c2)CC1 | ?
COc1ccccc1N1CCN(CCN2C(=O)c3ccccc3C(C)(C)C2=O)CC1 | -16%

Reprinted from the part before: 2 compounds, then new ones.
Molecule | HPGD inh
CCOC(=O)C1CCN(S(=O)(=O)c2cccc(-c3cn4cc(Cl)ccc4n3)c2)CC1 | ?
COc1ccccc1N1CCN(CCN2C(=O)c3ccccc3C(C)(C)C2=O)CC1 | -16%
FC(F)(F)c1cccc(N2CCN(c3ccc4nnc(-c5ccccc5)n4n3)CC2)c1 | -15%
CCC(C)NC(=O)C1CCN(S(=O)(=O)c2cccc3cccnc23)CC1 (configuration not stated) | -6%
COc1cc2cc(CN(CCCO)S(=O)(=O)c3ccccc3Cl)c(=O)[nH]c2cc1OC | ?
O=C(COC(=O)c1cccnc1)c1ccc(Cl)cc1 | -29%
CC(C)c1cc(C(=O)Nc2cccc(C(F)(F)F)c2)no1 | -29%
COc1cc(C(C(=O)NC2CCCCC2)N(C(=O)Cc2c[nH]c3ccccc23)c2ccccc2C)cc(OC)c1OC (configuration not stated) | -15%
O=C(NC1CCCCC1)C1CCCN1S(=O)(=O)c1cccc2nsnc12 (configuration not stated) | -1%
CCCCOc1ccc(-c2ncc(Cl)cn2)cc1 | -11%
CSc1ccc(/C=C(/NC(=O)c2ccc(C)cc2)C(=O)Nc2cccc(F)c2)cc1 | -14%
O=c1cc(-c2ccccc2)nc(SCc2ccc(Cl)cc2)[nH]1 | -17%
Cc1ccc2[nH]c3c(c2c1)CN(C(=O)CN1CC(C)OC(C)C1)CC3 (configuration not stated) | -9%
Cc1ccc(S(=O)(=O)N=S(CC2CC2(Cl)Cl)CC2CC2(Cl)Cl)cc1 (configuration not stated) | -12%
N#CCCCSc1nnc(-c2ccccn2)o1 | -7%
O=C(c1ccc(Cn2cc(Br)cn2)cc1)N1CCN(c2ccccc2)CC1 | -6%
NS(=O)(=O)c1ccc(NS(=O)(=O)c2cccs2)cc1 | -7%
Clc1ccc(OCc2nn3c(-c4ccccc4)nnc3s2)c(Cl)c1 | ?
O=C(O)c1ccc(NS(=O)(=O)c2cccc3nsnc23)cc1 | -14%
CCCS(=O)(=O)N1CCCC(C(=O)NCCCN2CCN(c3cccc(Cl)c3)CC2)C1 (configuration not stated) | -4%
Cc1cc(C(=O)CN2CCCC(C)C2)c(C)n1-c1ccc(F)cc1 (configuration not stated) | ?
COc1ccc(OC)c(S(=O)(=O)NCc2csc(-c3ccccc3)n2)c1 | -9%
COC(=O)CN(Cc1ccccc1)S(=O)(=O)c1ccc(OC)c(OC)c1 | -7%
O=C(CCCn1c(=O)[nH]c2cc(Cl)ccc2c1=O)NC1CCCCCC1 | -12%
Cc1ccc(NC(=S)NNC(=O)Cn2nc(C(F)F)cc2C(F)F)cc1 | -1%
Cc1cccc(NC(=O)/C(C#N)=C/c2cn(CC(=O)NCc3ccco3)c3ccccc23)c1 | 18%
O=C(COC(=O)Cc1ccc(S(=O)(=O)N2CCOCC2)s1)NCc1ccc(Cl)cc1 | -10%
CCOc1ccc(NC(=O)CCN2CCN(S(=O)(=O)c3ccc(Cl)cc3)CC2)cc1 | -6%
COc1ccccc1OCCOCCOc1ccc(C)cc1Br | -8%
COCCCNC(=O)CN(c1ccc(Cl)c(Cl)c1)S(C)(=O)=O | -6%
CCOC(=O)N1CCN(S(=O)(=O)c2ccc3[nH]cc(C(=O)O)c(=O)c3c2)CC1 | -18%
Cc1noc(C)c1C(=O)N1CCC2(CCCN(c3ccccc3)C2)CC1 | -6%
O=C(Cn1cnc2c(nnn2Cc2ccccc2)c1=O)NCC1CCCO1 (configuration not stated) | -28%
c1coc(-c2nc3ccccc3nc2-c2ccco2)c1 | ?
CN(Cc1ccco1)c1ccnc(-c2cccc(NS(C)(=O)=O)c2)n1 | -17%
N/C(=N\OC(=O)COc1ccc(Br)cc1Cl)c1ccccn1 | -16%
O=C(NC1CCCCCCC1)c1ccccc1O | ?
CCOc1ccc(CC2CC(=O)NC2=O)cc1 (configuration not stated) | -4%
CCN1C(=O)NC2=C(C(=O)c3ccccc32)C1c1ccccc1F (configuration not stated) | -10%
COc1cccc2c1C(=O)O/C2=C/c1ccc2c(c1)OCO2 | ?
CCN1C(=O)CSc2ccc(C(=O)OC)cc21 | 4%
Cc1cccc(OCC(=O)Nc2cc(C)on2)c1 | -4%
O=C(NC(=S)NC1CC1)c1cccnc1 | -2%
COc1cc(/C=N/NC(=O)C(C)n2nnc3ccccc32)ccc1O (configuration not stated) | ?
CCOc1cccc(-c2nnc(SCC(=O)Nc3cc(OC)cc(OC)c3)n2N)c1 | 17%
NC(=O)CC[C@@H]1NC(=O)[C@@H]2CCCN2C(=O)c2cc([N+](=O)[O-])cc(F)c2NCCC[C@@H](C(N)=O)NC1=O | -10%
O=C(CSc1ncn[nH]1)Nc1cccc(S(=O)(=O)N2CCCCCC2)c1 | -8%
Cc1ccnc(NC(=O)CCC(=O)N(CC(=O)NC(C)(C)C)C2CCCC2)c1 | -5%
Cc1cccc(NC(=O)/C(C#N)=C/c2ccc(Sc3ccccc3)o2)c1C | -1%
Cc1ccccc1NC(=O)CN1C(=O)S/C(=C\c2cccn2-c2cccc(C(=O)O)c2)C1=O | 28µM*
CN(C)C(/C=C/Nc1ccccc1F)=C(C#N)C#N | -2%
O=C(CCC1(C(=O)O)CCC(=O)NC1)NCc1ccccc1 (configuration not stated) | -3%
O=c1[nH]c(CN2CCN(c3ccccc3Cl)CC2)nc2ccsc12 | -4%
COc1ccc(/C=N/NC(=O)c2cc(-c3ccccc3OC)nc3ccccc23)cc1COC(C)=O | ?
Cc1ccc(NC(=O)c2cc(-c3ccco3)on2)cc1 | ?
O=C(Nc1ccc(-c2nc3c(ccc4ccccc43)o2)cc1)c1ccco1 | ?
COC(=O)c1cc2ccsc2n1CC(=O)Nc1cc(C)cc(C)c1 | -2%
Cc1ccccc1CSCCNS(C)(=O)=O | 2%
CCn1c2ccccc2c2cc(Nc3cc(C)nc4ncnn34)ccc21 | -17%
Cc1ccccc1-n1c(SC/C(O)=C(\C#N)c2nc3ccccc3[nH]2)nnc1-c1ccncc1 | -24%
O=C(COC(=O)c1ccccc1Cl)Nc1nccs1 | -25%
COC(=O)C1=C(C)NC(=O)/C1=C\c1ccco1 | -8%

Remaining list, next part.
Molecule | HPGD inh
COc1nc(-c2ccccc2)ccc1-c1noc(C)n1 | -9%
CC(C)COC(=O)CCNc1n[nH]c(=O)[nH]c1=O | -3%
COc1ccccc1NC(=O)CSc1nncn1-c1cccnc1 | -5%
Cc1cc(S(=O)(=O)Nc2ccc(F)cc2)c(C)s1 | ?
CCCC(CCC)C(=O)OC1C[C@H]2CC[C@@H](C1)[N+]2(C)C (some centres not stated) | -3%
CCCCC(=O)Nc1cc2nn(-c3ccc(OC)cc3)nc2cc1C | ?
O=C1C(=O)N(Cc2ccco2)C(c2cccc(Cl)c2)/C1=C(\O)c1ccc2c(c1)OCCO2 (configuration not stated) | -17%
O=C(NCCCN1CCOCC1)NC1CCCCC1 | -6%
CC1(C)CC2C1CC[C@]1(C)CCC3C(C(=O)O)CC(=O)O[C@]32C1 (some centres not stated) | -9%
CC(C)c1nc(SCC(=O)N2CCCc3ccccc32)c2c(=O)n(C)c(=O)n(C)c2n1 | -18%
COc1ccc(CCn2c(SCC(=O)Nc3cc(C)on3)nc3ccccc3c2=O)cc1OC | -2%
O=C(CCC(=O)OCC(=O)c1ccc(Cl)cc1)NC1CCCCC1 | -20%
Cc1nc2ccc(NC(=O)NCCO)cc2s1 | -9%
CCOc1ccccc1OCCCCN1CCCC1 | -8%
CCC(=O)Nc1nnc(SCCOC)s1 | -3%
CCOc1ccccc1-c1cc(-c2n[nH]c(=S)n2CC)c2ccccc2n1 | ?
Cc1cc(/C=N/NC(N)=S)c(C)n1-c1ccc(Cl)cc1 | -12%
CCC1CCC2(CC1)NC(=O)N(CC(=O)Nc1cc(C)on1)C2=O (configuration not stated) | -6%
CCCCC/C=C\C/C=C\CCCCCCCCCC(=O)NCCCC(=O)O | -4%
COc1ccc2c(c1)c(C(=O)CN1CCN(C(=O)c3ccco3)CC1)c(C)n2C | 4%
CCN(CC)CCCn1c(=S)[nH]c2cc(OC)c(OC)cc2c1=O | -1%
Cc1noc(C)c1C(=O)Nc1ccc(Cl)cc1C(F)(F)F | -9%
Cc1ccccc1NC(=O)c1cccc(S(=O)(=O)Oc2ccc([N+](=O)[O-])cc2)c1 | ?
COc1ccc(CCNC(=O)C2CCN(S(C)(=O)=O)CC2)cc1 | -13%
CC(C)C(=O)N1CCc2cc(-c3csc(N)n3)ccc21 | 20µM*
CSC1CCCCC1(O)CSc1nc2ccccc2o1 (configuration not stated) | -16%
O=S(=O)(c1ccc(NCCc2c[nH]c3ccccc23)nc1)N1CCOCC1 | -8%
Cc1c(NC(=O)c2c(N)n(-c3ccccc3)c3nc4ccccc4nc23)c(=O)n(-c2ccccc2)n1C | ?
COC(=O)CCCC1=CC2=CC(=O)C(C)(OC(=O)c3cccs3)C(=O)C2=CN1CC1CC1 (configuration not stated) | -8%
CC(C)C[C@H](NC(=O)Nc1cccc(C(F)(F)F)c1)C(=O)O | -7%
O=C(Cc1ccccc1)N/N=C/c1ccccc1OCc1ccc(Cl)cc1 | -7%
COc1ccc(OCCCC(=O)Nc2cccnc2)cc1 | -8%
CC1(C)CC(=O)C(C=Nc2ccc3[nH]ncc3c2)=C(O)C1 | -24%
CC(=O)N1c2ccc3ccccc3c2C2C=CCC2C1c1ccc(Br)cc1 (configuration not stated) | -21%
O=C(CSC1=NCCN1)NC12CC3CC(CC(C3)C1)C2 | -3%
C=CCNC(=S)NC1CC(C)(C)NC(C)(C)C1 | -1%
O=C(NCC1CCCO1)c1nc2c(nnn2Cc2ccc(F)cc2)c(=O)[nH]1 (configuration not stated) | 14µM*

With a hit mark in HPGD inh, among the entries above:
Molecule | HPGD inh
O=C(c1cccnc1)N1CCc2ccccc2C1 | 32µM*
Cc1ccccc1NC(=O)CN1C(=O)S/C(=C\c2cccn2-c2cccc(C(=O)O)c2)C1=O | 28µM*
CC(C)C(=O)N1CCc2cc(-c3csc(N)n3)ccc21 | 20µM*
O=C(NCC1CCCO1)c1nc2c(nnn2Cc2ccc(F)cc2)c(=O)[nH]1 (configuration not stated) | 14µM*

This is a subset (hit frequency here may not be typical).
